# AmpC inh no det – inhibitors of E. coli AmpC beta-lactamase without detergent; AID 585; 71,000 tested, 1.8% active; P00811; Potency, µM (doses to about 28.7 µM), for inactives: top-dose activity change, negative = inhibition; AmpC nitrocefin hydrolysis, absorbance 480 nm, no detergent; potencies from a single point are estimates; active = falling curve, for most hits resting on a single point; inconclusive = weak or doubtful change; inactive = flat or rising curve; further: % of control where 0% means no effect; about half of the hits show no inhibition at the top dose; a quarter of the inactives give rising signals
# Target sequence (P00811 whole entry, looked up): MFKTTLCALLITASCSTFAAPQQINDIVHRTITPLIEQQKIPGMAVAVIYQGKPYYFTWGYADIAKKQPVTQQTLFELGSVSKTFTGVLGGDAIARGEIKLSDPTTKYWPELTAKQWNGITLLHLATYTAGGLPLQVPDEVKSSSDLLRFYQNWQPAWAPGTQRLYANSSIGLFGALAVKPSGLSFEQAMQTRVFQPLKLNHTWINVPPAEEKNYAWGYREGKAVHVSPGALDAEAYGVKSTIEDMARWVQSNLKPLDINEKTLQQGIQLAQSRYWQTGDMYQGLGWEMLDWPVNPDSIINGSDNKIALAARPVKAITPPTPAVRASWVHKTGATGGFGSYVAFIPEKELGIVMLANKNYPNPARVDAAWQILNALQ
#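 AmpC in 20 mM phosphate buffer pH 7.0 was preincubated 15 min at room temperature with compounds. Nitrocefin (800 uM stock) was then added and hydrolysis followed at 480 nm every 20 s for 4 min.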
# Starred values were filed as active, the others as inactive; ? = inconclusive; & = joins results of further samples; [ ] = dose if it differs, or a comment. Potency means the concentration at half of the fitted maximal effect.
nr | smiles | AmpC inh no det
1 | C[N+]1(C)CCC(=C(c2ccccc2)c2ccccc2)CC1 | 2%[12.8 µM]
2 | C1COC(NC(C2CC2)C2CC2)=N1 | 85%
3 | Cc1ccc(N(CC2=NCCN2)c2cccc(O)c2)cc1 | -10%
4 | CNCCCN1c2ccccc2CCc2ccccc21 | 18%
5 | CN1CCO[C@H](c2ccccc2)c2ccccc2C1 | -8%[12.8 µM]
6 | NOCC(=O)O | 0%
7 | C[C@H]1[C@H](C)CC[C@@]2(C(=O)O)CC[C@]3(C)C(=CC[C@H]4[C@@]5(C)C[C@@H](O)[C@H](O)[C@@](C)(CO)[C@@H]5CC[C@@]43C)[C@@H]12 | 100%
8 | CCCCNc1ccc(C(=O)OCCOCCOCCOCCOCCOCCOCCOCCOCCOC)cc1 | 115%[12.8 µM]
9 | C[C@@H](C(=O)O)c1ccc(C(=O)c2cccs2)cc1 | -1%[12.8 µM]
10 | OC[C@@H](O)CN1CCN(c2ccccc2)CC1 | -10%[12.8 µM]
11 | CN=C(NC#N)Nc1ccc(C2=NNC(=O)C[C@@H]2C)cc1 | 0%&11%
12 | CCn1cc(C(=O)O)c(=O)c2cnc(N3CCNCC3)nc21 | -1%[12.8 µM]
13 | CC(=O)OCC(=O)[C@@]1(O)CC[C@@H]2[C@H]3CCC4=CC(=O)C=C[C@]4(C)[C@]3(F)[C@@H](O)C[C@@]21C | 2%[12.8 µM]
14 | C#C[C@@]1(O)CC[C@@H]2[C@@H]3CCC4=CC(=O)CC[C@@H]4[C@H]3CC[C@]21CC | 4%[12.8 µM]
15 | CC(=O)CCCCn1c(=O)c2c(ncn2C)n(C)c1=O | -7%
16 | COc1nccc(-c2c(-c3ccc(F)cc3)ncn2C2CCC(O)CC2)n1 (stereo not given) | 48%
17 | O=C(O)c1cccnc1Nc1cccc(C(F)(F)F)c1 | -22%[12.8 µM]
18 | CC(=O)O[C@]1(C(C)=O)CC[C@@H]2[C@@H]3C=C(Cl)C4=CC(=O)[C@H]5C[C@@H]5[C@]4(C)[C@H]3CC[C@]21C | 103%[12.8 µM]
19 | COc1cc(N)c(Cl)cc1C(=O)N[C@H]1CCN(CCCOc2ccc(F)cc2)C[C@@H]1OC | 96%
20 | Oc1cc2c(cc1O)[C@H]1c3ccc(O)c(O)c3OC[C@@]1(O)C2 | -2%
21 | Cc1ccc(=O)n(-c2ccccc2)c1 | 35%&-10%
22 | O=c1oc2c(O)c(O)cc3c(=O)oc4c(O)c(O)cc1c4c23 | 7.9µM*
23 | O=C(c1ccccc1)c1ccc2n1CC[C@H]2C(=O)O | -11%[12.8 µM]
24 | CCN(CC)CCOC(=O)c1ccc(N)cc1 | -6%[12.8 µM]
25 | O=C(O)CCC(=O)c1ccc(-c2ccccc2)cc1 | -6%[12.8 µM]
26 | CC[C@H](NC(C)C)[C@H](O)c1ccc(O)c2[nH]c(=O)ccc12 | 24%
27 | C[C@H](N[C@@H](C)COc1ccccc1)[C@H](O)c1ccc(O)cc1 | -6%[12.8 µM]
28 | CCCCNc1ccc(C(=O)OCCN(C)C)cc1 | 6%[12.8 µM]
29 | Oc1ccc(/C=C\c2cc(O)cc(O)c2)cc1 | ?
30 | N[C@@H](Cc1c[nH]c2ccc(O)cc12)C(=O)O | -16%&-7%

# Some of these compounds in order of heavy-atom count, rising.
nr | smiles | AmpC inh no det
6 | NOCC(=O)O | 0%
2 | C1COC(NC(C2CC2)C2CC2)=N1 | 85%
30 | N[C@@H](Cc1c[nH]c2ccc(O)cc12)C(=O)O | -16%&-7%
29 | Oc1ccc(/C=C\c2cc(O)cc(O)c2)cc1 | ?
9 | C[C@@H](C(=O)O)c1ccc(C(=O)c2cccs2)cc1 | -1%[12.8 µM]
25 | O=C(O)CCC(=O)c1ccc(-c2ccccc2)cc1 | -6%[12.8 µM]
15 | CC(=O)CCCCn1c(=O)c2c(ncn2C)n(C)c1=O | -7%
26 | CC[C@H](NC(C)C)[C@H](O)c1ccc(O)c2[nH]c(=O)ccc12 | 24%
22 | O=c1oc2c(O)c(O)cc3c(=O)oc4c(O)c(O)cc1c4c23 | 7.9µM*
16 | COc1nccc(-c2c(-c3ccc(F)cc3)ncn2C2CCC(O)CC2)n1 (stereo not given) | 48%
13 | CC(=O)OCC(=O)[C@@]1(O)CC[C@@H]2[C@H]3CCC4=CC(=O)C=C[C@]4(C)[C@]3(F)[C@@H](O)C[C@@]21C | 2%[12.8 µM]
19 | COc1cc(N)c(Cl)cc1C(=O)N[C@H]1CCN(CCCOc2ccc(F)cc2)C[C@@H]1OC | 96%
7 | C[C@H]1[C@H](C)CC[C@@]2(C(=O)O)CC[C@]3(C)C(=CC[C@H]4[C@@]5(C)C[C@@H](O)[C@H](O)[C@@](C)(CO)[C@@H]5CC[C@@]43C)[C@@H]12 | 100%
8 | CCCCNc1ccc(C(=O)OCCOCCOCCOCCOCCOCCOCCOCCOCCOC)cc1 | 115%[12.8 µM]

# Continued:
nr | smiles | AmpC inh no det
31 | N#Cc1ccc(C(c2ccc(C#N)cc2)n2cncn2)cc1 | -6%[12.8 µM]
32 | COc1cc2ncnc(Nc3cccc(Cl)c3)c2cc1OC | 41%&15%
33 | C1CCC(C(C[C@@H]2CCCCN2)C2CCCCC2)CC1 | 9%[12.8 µM]
34 | CN[C@H]1[C@@H](O)[C@@H](NC)[C@@H]2O[C@@]3(O)C(=O)C[C@@H](C)O[C@H]3O[C@H]2[C@H]1O | -11%[12.8 µM]

# Results in sequence from the list.
# AmpC inh no det, nos. 31 to 34: -6%[12.8 µM], 41%&15%, 9%[12.8 µM], -11%[12.8 µM]

# Screening results (PubChem)

# A portion of the library (hit frequency here may not be typical).
